# Source: PubChem
# HPGD block – blocks human HPGD enzyme activity; Potency, µM, for inactives: at the highest dose activity change, negative = inhibition, hits mostly inhibitors; purified HPGD, NADH fluorescence kinetic, PGE2 substrate; P15428; hit rate 4.3% among 150,000; AID 894; active = well fitted inhibition curve with a large enough effect (not every such curve was filed as active); inconclusive = small, poorly fitted or top-dose-only effect, or another doubt; inactive = no such curve, though single readings can be large or run the other way;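 note: top concentration of the series not given in the record; plate controls included wells without enzyme; inactives centre near -10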
# Target sequence (P15428 whole entry, looked up): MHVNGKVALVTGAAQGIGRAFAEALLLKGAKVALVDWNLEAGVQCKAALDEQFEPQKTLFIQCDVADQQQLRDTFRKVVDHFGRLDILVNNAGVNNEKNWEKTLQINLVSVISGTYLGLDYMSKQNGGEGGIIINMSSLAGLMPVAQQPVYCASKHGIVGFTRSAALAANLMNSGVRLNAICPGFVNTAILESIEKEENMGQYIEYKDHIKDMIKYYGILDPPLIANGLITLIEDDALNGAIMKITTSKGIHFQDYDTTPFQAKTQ
#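 NADH formation kinetics: reaction with 30 uM PGE2 and 1 mM NAD+ (final), 20 nM enzyme, Tris-HCl pH 8 with Tween 20, after 15 min compound preincubation at room temperature. Fluorescence change, last versus first of five reads.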
# The depositor's hits bear a star; ? = inconclusive; & = joins results of further samples. % is set by controls: 0 for no effect and ±100 for the full control effect; potency is the fitted concentration of half-maximal effect.
HPGD block	smiles
-22%	COc1ccc(S(=O)(=O)N(CCCN2CCOCC2)Cc2cccc3ccccc23)cc1
?	O=C(c1cc(-c2ccccc2O)on1)N1CCc2ccccc2C1
-2%	CC1=NN(/C(=N\c2nnc(C)s2)Nc2ccccc2)[C@H](c2ccc(C)cc2)S1
-11%	CC1CCCC/C1=N\Nc1ccc(S(N)(=O)=O)cc1[N+](=O)[O-] (stereo not given)
-4%	CCN(C(=O)c1c(-c2ccccc2)noc1C)c1ccccc1
-7%	CCc1ccc2c(COC(=O)CNS(=O)(=O)c3ccc(NC(C)=O)cc3)cc(=O)oc2c1
-9%	CCCn1c(SCC(=O)Nc2nnc(C)s2)nnc1-c1ccoc1C
-6%	O=C1CNC(=O)N1Cc1ccc(Br)cc1
-8%	COc1ccc(Br)cc1CNC(C)c1ccccc1 (stereo not given)
-19%	O=C(c1ccc(CN2CCOCC2)cc1)N1CCC(Cc2ccccc2)CC1
13µM*	CCOC(=O)C1=C(Cc2ccc(C)cc2)C(=O)c2ccccc2C1=O
-15%	O=C(NC(=S)Nc1ccc2c(c1)OCO2)c1ccc(Cl)cc1
-2%	Cc1ccc(NC(=O)C(NS(=O)(=O)c2cccc3nsnc23)C(C)C)nc1 (stereo not given)
-15%	Cc1nn(-c2ccccc2)c(N2CCCCC2)c1/C=N/O
1%	CCCC(=O)NCCc1nc2ccccc2n1CCC
-11%	Cc1ccc(S(=O)(=O)N2CCC(C(=O)Nc3nnc(-c4ccc(F)cc4)s3)CC2)cc1
16µM*	S=c1nc(C2CC2)[nH]c2ccccc12
-5%	CC(C)NC(=O)NC(=O)COc1cccc2c1OC(C)(C)C2
0%	O=C(c1ccccc1)N1CCN(C(=O)c2ccccc2)CC1
-1%	Cc1cc(NC(=O)CCCC(=O)O)nc(C)n1
-4%	Cc1ccc(S(=O)(=O)N2CCC(n3nnc4cc(C)ccc43)CC2)cc1
-15%	CCOC(=O)C(CO)(NC(C)=O)C(=O)OCC
-9%	O=C(CCCn1c(SCC(=O)NCC2CCCO2)nc2ccccc2c1=O)NCc1ccccc1 (stereo not given)
-5%	c1cn(CCCNC2=NCCCCC2)cn1
-26%	NC(=O)CSc1oc(-c2cccs2)nc1S(=O)(=O)c1ccccc1
-15%	N#CCCn1cc(/C=N/NC(=O)c2ccncc2)c(-c2ccccc2)n1
-12%	Cc1ccc2[nH]c(=O)c(CN(Cc3nnnn3Cc3ccccc3)C3CCCC3)cc2c1
?	O=C(N/N=C/c1cc([N+](=O)[O-])cc([N+](=O)[O-])c1O)/C(=C\c1cccs1)NC(=O)c1ccccc1
-8%	Cc1c(C(=O)OC(C)CCN(C)C)oc2ccccc12 (stereo not given)
-6%	c1ccc(CSc2nnc(NC3=NCCCCC3)s2)cc1

# Structural class: the compounds so far with two or more sulfur atoms.
HPGD block	smiles
-2%	CC1=NN(/C(=N\c2nnc(C)s2)Nc2ccccc2)[C@H](c2ccc(C)cc2)S1
-9%	CCCn1c(SCC(=O)Nc2nnc(C)s2)nnc1-c1ccoc1C
-2%	Cc1ccc(NC(=O)C(NS(=O)(=O)c2cccc3nsnc23)C(C)C)nc1 (stereo not given)
-11%	Cc1ccc(S(=O)(=O)N2CCC(C(=O)Nc3nnc(-c4ccc(F)cc4)s3)CC2)cc1
-26%	NC(=O)CSc1oc(-c2cccs2)nc1S(=O)(=O)c1ccccc1
-6%	c1ccc(CSc2nnc(NC3=NCCCCC3)s2)cc1

# Remaining list, next part:
HPGD block	smiles
-12%	Cc1c(Cl)c(C(F)(F)F)nn1CC(=O)N1CCSCC1
-10%	COc1ccc(C)cc1S(=O)(=O)N(CC(=O)Nc1cccc([N+](=O)[O-])c1)c1ccc(C)cc1
-9%	CC1CCCN(C(=O)Cn2cnc3c2c(=O)n(C)c(=O)n3C)C1 (stereo not given)
-10%	COc1ccc(NC(=S)N(CCCN2CCCCC2)Cc2cccs2)cc1
-16%	O=c1c(Cc2ccc(F)cc2)c(O)ccn1Cc1cccc(Cl)c1
?	COc1ccc(NC(=O)COc2ccc(/C=N/NC(=O)c3cccnc3)cc2OC)cc1
-1%	C(=C\c1ccccc1)/C=N/Nc1nncc(-c2ccccc2)n1
-9%&-15%	COc1ccc(C2=C(CN(C)C)C(c3ccccc3)c3ccccc3O2)cc1 (stereo not given)
-15%	CCCCNC(=O)CCc1nc2cccnc2n1Cc1ccc(OC)cc1
-11%	C(#Cc1ccccc1)CN1CCN(c2ccccn2)CC1
-27%	Cc1nc(NCC2CCCO2)c2nnn(Cc3ccccc3)c2n1 (stereo not given)
-3%	CCCCNC(C(=O)Nc1ccc(Cl)c([N+](=O)[O-])c1)c1ccccc1 (stereo not given)
-18%	Cc1ccnc(NS(=O)(=O)c2ccc(NC(=O)Cc3cccs3)cc2)n1
-16%	COc1ccc(C2NC(=S)N(c3ccccc3)C(C)=C2C(=O)Nc2ccccc2)cc1 (stereo not given)
-3%	CCOCCCn1c(SCC(=O)Nc2cc(C(C)(C)C)nn2-c2ccccc2)nc2ccccc2c1=O
22µM*	O=C(NCc1cccs1)c1csc2c1CCCCC2
-2%	CC1CCC(NC(=O)COc2ccccc2C(N)=O)CC1 (stereo not given)
-23%	COc1ccc(Br)cc1C(=O)Nc1ccc(Cc2ccncc2)cc1
-10%	COc1ccc(C2CC(=O)C3=C(C2)Nc2ccccc2NC3c2coc3ccccc3c2=O)cc1OC (stereo not given)
-1%	CC(C)C[C@@H](CC(=O)N[C@@H](CCC(=O)O)CC(=O)O)NC(=O)[C@@H]1CCCC[C@H]1NC(=O)C[C@H](CCCN)NC(=O)C[C@H](Cc1c[nH]c2ccccc12)NC(=O)[C@@H]1CCCC[C@H]1N
?	O=C(NCCc1ccccn1)c1cc(-c2ccc(Cl)cc2)nc2ccccc12
-9%	CCCOc1cc(C)c(S(=O)(=O)N2CCOCC2)cc1C
-5%	COC(=O)c1ccccc1NC(=O)c1c(Br)cnn1C
-3%	O=C1N=c2ccccc2=C1c1sc(=S)n(CC2CCCO2)c1O (stereo not given)
-8%	CCNC(=O)NC(=O)C(C)OC(=O)c1oc2ccccc2c1CSC1CCCCC1 (stereo not given)
-12%	COc1cc(OC)c(NC(=O)CS(=O)(=O)Cc2nc(-c3ccc(C)cc3)oc2C)cc1Cl
-11%	CCOc1ccc(/C(O)=C2/C(=O)C(=O)N(CCCn3ccnc3)C2c2cccs2)cc1Cl (stereo not given)
-10%	COc1ccc(OC)c(NC(=O)CN2CCN(C(=O)c3ccco3)CC2)c1
?	COc1ccc(OC)c(NC(=O)c2c(NC(=O)CNCc3ccco3)sc3c2CCC3)c1
-7%	C=CCn1c(SCn2nnc3ccccc3c2=O)nnc1-c1ccc(Cl)cc1
-10%	Clc1ccc(OCCCNCc2ccccc2)c(Br)c1
-25%	Cn1c(=O)c2c(-c3ccccc3F)c3c(nc2n(C)c1=O)-c1ccccc1C3O (stereo not given)
?	Cc1ccc(NS(=O)(=O)N(C)C)cc1
-17%	NC(=O)c1ccc(-n2nnnc2SCc2ccccc2)cc1
-16%	COC(=O)C1=C(CSc2nncn2C)NC(=O)NC1c1cc(C)ccc1C (stereo not given)
-13%	CCC(C)OC(=O)c1[nH]c2c(c1C)C(=O)CC(c1ccc(N(C)C)cc1)C2 (stereo not given)
-18%	O=C(CSc1nnnn1-c1ccc(Cl)cc1)Nc1cccnc1Cl
-20%	O=S(=O)(NCCc1cn2ccccc2n1)c1cccs1
-28%	Cc1ccc(CNC(=O)CSc2c3c(nc4ccc(Cl)cc24)CCCC3)o1
?	COc1ccc(-c2cc(C(F)(F)F)c(C#N)c(SCC(=O)Nc3ccc(C)cc3)n2)cc1
-13%	Cc1cc2oc(C(=O)N(Cc3ccco3)C3CCS(=O)(=O)C3)cc(=O)c2cc1Cl (stereo not given)
0%	COc1cccc(N2CCN(C(=O)c3ccc(N4C(=O)NC5CC4(C)Oc4ccccc45)cc3)CC2)c1 (stereo not given)
-4%	O=C(O)c1cc2c(o1)CCC/C2=N\O
-2%	CCOC(=O)NCc1ccc(S(=O)(=O)Nc2ccccc2C)cc1
-4%	Cc1cccc(NC(=O)CSc2nc(N)c(NC(=O)c3cccs3)c(=O)[nH]2)c1
-14%	CC(O)CNc1nc2c(c(=O)n(C)c(=O)n2C)n1C/C=C/c1ccccc1 (stereo not given)
3%	COc1ccc(C(=O)Nc2ccc(SC(F)F)cc2)cc1
-20%	CC1CCc2nc(NC(=O)C3COc4ccccc4O3)sc2C1 (stereo not given)
-14%	Cc1cc(C(=O)OCC(=O)NC2CCS(=O)(=O)C2)c(C)n1-c1ccccc1 (stereo not given)
-29%	c1ccc(Nc2cccc(Nc3ccccc3)n2)cc1
-5%	COc1cc(C(=O)NCCc2nc3ccccc3n2C)cc(OC)c1OC
-23%	O=C(NCc1ccc2c(c1)OCO2)c1cc2c(s1)CSC2
-3%	Cn1c(=O)n(-c2ccccc2)c(=O)c2c3c(sc21)COC(C)(C)C3
-13%	COc1ccc(S(=O)(=O)N2CCC(C(=O)Nc3nnc(CCN4CCCCC4)s3)CC2)cc1
-13%	CCN(CCO)Cc1csc2ccc(Br)cc12
-8%	C[C@H](CCC(=O)O)[C@H]1CC[C@H]2[C@@H]3[C@H](O)C[C@@H]4C[C@H](O)CC[C@]4(C)[C@H]3C[C@H](O)[C@]12C
-4%	COCCNS(=O)(=O)c1cccc2cccnc12
-11%	Cc1c(C(=O)N/N=C/C(C)C)[nH]c2ccc([N+](=O)[O-])cc12
-3%	CCC(c1nnnn1C1CCCCC1)N1CCN(C2CCCC2)CC1 (stereo not given)
-4%	Clc1ccc(-c2c[n+](Cc3cccc(Cl)c3)c3n2CCC3)cc1

# Continued:
HPGD block	smiles
-5%	Cn1c(C(C#N)/C(=N\S(=O)(=O)c2cccs2)c2ccccc2)nc2ccccc21 (stereo not given)
-7%	CCN(CC)S(=O)(=O)C1CCS(=O)(=O)C1 (stereo not given)
-2%	Cc1ccc(S(=O)(=O)NC(=O)Nc2nnc(C)s2)cc1
-1%	COc1ccc(-c2nc3c(c4c2C[C@H](c2ccccc2)OC4)CN(C(=O)Nc2cccc(C#N)c2)CC3)c(C)c1
-1%	CCCCCCNCC1OCc2ccccc2CO1
-9%	COc1ccc(C(=O)NC(=S)N2CCN(c3ccc([N+](=O)[O-])cc3)CC2)cc1
?	Cc1cc(C)n2c(SCC(=O)Nc3cc(C)on3)nnc2n1
2%	CC(C)NS(=O)(=O)c1ccc(OCC(=O)Nc2ccc3c(c2)OCO3)c(Cl)c1
-9%	CC(C)[C@@H](CC(=O)N[C@@H]1CCCC[C@H]1C(=O)N[C@H](CC(=O)N[C@@H](CCC(=O)O)CC(=O)O)Cc1c[nH]c2ccccc12)NC(=O)C[C@H](Cc1ccccc1)NC(=O)[C@@H]1CNCC[C@H]1N
-17%	O=C(NC(Cc1ccccc1)C(=O)N1CCN(c2ccccn2)CC1)c1ccco1 (stereo not given)
-13%	Nc1nc(COc2ccc3ccccc3c2)cs1
-8%	O=C1c2ccccc2C(=O)N1C[C@]1(C(=O)O)NCCS1(=O)=O
-9%	C=C[C@@](C)(O)CC[C@@H]1[C@@]2(C)CCCC(C)(C)[C@@H]2CC[C@@]1(C)O
-28%	C#CCNC(=O)/C=C/c1ccc(C)cc1
-15%	COc1cccc(N/C(SCc2ccccc2C)=C(/C#N)C(=O)NCc2cccs2)c1
?	COc1cc(-c2nc(-c3ccc(NC(=O)c4ccc5c(c4)OCO5)cc3)no2)cc(OC)c1OC
-7%	CC1=CS/C(=C(/C#N)C(=O)NCc2ccco2)N1c1ccccc1
-17%	Cc1cccc[n+]1C1C(c2ccccc2)C(C#N)=C(C(=C=[N-])C#N)NC1(O)C1CC1 (stereo not given)
-9%	Cc1noc(C)c1COc1cccc(C(=O)Nc2ccc(OCc3ccccc3)cc2)c1
-2%	COc1ccc(CSc2nnc(CNS(C)(=O)=O)o2)cc1
-7%	Cc1cccc(NC(=O)CSc2nnc(-c3ccncc3)n2C)c1
-4%	NNC(=O)COc1cccc2cccnc12
-15%	CCCOc1ccc(N2C(=O)CC(N(CCc3ccc(S(N)(=O)=O)cc3)C(C)=O)C2=O)cc1 (stereo not given)
?	O=C(/C=C/c1ccc2c(c1)OCO2)NCCSCc1ccc(Cl)cc1Cl
-8%	Cc1ccc(NCCNc2ccc(C)cc2)cc1
-4%	COc1ccc(CCNC(=O)C(=O)NCc2ccccc2)cc1OC
-16%	O=C(CCn1c(=O)oc2ccccc21)N1CCN(c2ccccc2Cl)CC1
-7%	Cc1cc(NC(=O)CC23CC4CC(C2)CC(CC(=O)Nc2cc(C)on2)(C4)C3)no1
-1%	COc1ccccc1NC(=O)CCSc1nnnn1C
2%	Cc1nn(Cc2c(F)c(F)c(F)c(F)c2F)c(C)c1NC(=O)c1nn(C)cc1[N+](=O)[O-]
-2%	CCOC(=O)C(C(=O)OCC)C(C)(C)/C(C)=N\Nc1ccc([N+](=O)[O-])cc1[N+](=O)[O-]
-12%	N#Cc1ccc(N2CCCC2C(=O)O)c([N+](=O)[O-])c1 (stereo not given)
-22%	CCCC(=O)c1cc(F)c(N2CCN(C(=O)OCC)CC2)cc1C

# Seven of the compounds above, bar-delimited:
SMILES | HPGD block
COc1ccc(CSc2nnc(CNS(C)(=O)=O)o2)cc1 | -2%
Cc1cccc(NC(=O)CSc2nnc(-c3ccncc3)n2C)c1 | -7%
NNC(=O)COc1cccc2cccnc12 | -4%
CCCOc1ccc(N2C(=O)CC(N(CCc3ccc(S(N)(=O)=O)cc3)C(C)=O)C2=O)cc1 (stereo not given) | -15%
O=C(/C=C/c1ccc2c(c1)OCO2)NCCSCc1ccc(Cl)cc1Cl | ?
Cc1ccc(NCCNc2ccc(C)cc2)cc1 | -8%
COc1ccc(CCNC(=O)C(=O)NCc2ccccc2)cc1OC | -4%

# The list is partial, so the mix of outcomes need not match the whole.
